NPYLR7 agonist: activates Aedes aegypti NPYLR7 receptor | HEK293T NPYLR7/Galpha15, GCaMP6s calcium fluorescence | activation, % at 10 µM | 270,000 compounds, 0.15% hits; in the data active = activation above about 40%;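 note: 0% = vehicle and 100% = reference agonist at the receptor; some compounds past the cut are filed as inactive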
NPYLR7 agonist max-min: recorded beside NPYLR7 agonist, whose call it bears; activation, %; measured here: Max-Min RFU normalised activation; some inactives read as strong as hits;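 span of the calcium signal over five minutes; 0% = vehicle and 100% = native peptide agonist; compound fluorescence can raise it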
An asterisk follows results filed as active; & = joins results of further samples.

The opening two entries, ahead of the listing:
SMILES	NPYLR7 agonist	NPYLR7 agonist max-min
O=C1/C(=C/c2ccsc2)CSC/C1=C/c1ccsc1	1	-1
CNc1nc(Nc2ccc([N+](=O)[O-])cc2)nc(OCC(F)(F)C(F)F)n1	0	-10

Main list (from the top)
SMILES	NPYLR7 agonist	NPYLR7 agonist max-min
O=C1/C(=C/c2ccsc2)CSC/C1=C/c1ccsc1	1	-1
CNc1nc(Nc2ccc([N+](=O)[O-])cc2)nc(OCC(F)(F)C(F)F)n1	0	-10
CC(C)(C)N1C(=O)NC(=O)/C(=C\c2ccco2)C1=O	5	3
O=C(NCc1cn2ccsc2n1)C(=O)Nc1cccc2c1CCCC2	11	8
Cc1ccc(C(=O)N2CCCC3(CNC(=O)O3)C2)cc1N1CCNC1=O (stereo not drawn)	8	-2
COc1cc(/C=C/CN2CCCC(CNC(=O)c3ccco3)C2)ccc1O (stereo not drawn)	8&-5	-1&-5
C1=CCC(CNCc2cccnc2N2CCN(c3ccccn3)CC2)CC1 (stereo not drawn)	2	-2
CCCN(Cc1c(C)nn(-c2cccc(F)c2)c1N1CCN(CC)CC1)C(=O)Nc1ccc(C)cc1C	11	25
COC(=O)CCC(=O)NCc1ccc(-c2ncc(-c3ccc(OC)cc3)[nH]2)cc1	-4	6
CN(Cc1cc2n(n1)CCCNC2)Cc1noc2c1CCCC2	-4	-13
O=C1NC(=S)SC1=Cc1ccccc1OC(F)F	7	11
COC(=O)C1=C(C)N(CCc2cccs2)C(=O)NC1c1ccc(Cl)s1 (stereo not drawn)	11	5
COc1ccc(-c2nnc3n2N=C2CCCCC2S3)c(OC)c1 (stereo not drawn)	5	8
COc1cc(OC)c(OC)cc1CNC(=O)CCl	-13	-11
CC(NC1CSCCSC1)c1cn2ccsc2n1 (stereo not drawn)	-1	-2
C[C@H](Cc1ccc(O)c(O)c1)[C@@H](C)Cc1ccc(O)c(O)c1	5	-4
Cc1cc(NC(=O)Cn2c(=O)c(C#N)c3n(c2=O)CCC3)no1	9	8
CCCc1nc(N2CCCN(C(=O)c3ccccc3OC)CC2)c2c(C)nn(-c3ccccc3)c2n1	10	15
COc1ccc(N)cc1-n1nnnc1-n1cccn1	2	-3
CCOC(=O)c1nc2cc(C)c(C)cc2nc1N1CCN(C(=O)c2ccc(F)c(Cl)c2)CC1	7	5
O=C(NC(c1ccccc1)c1ccccc1)[C@@H]1CCCN1C(=O)c1cc2cc(O)ccc2[nH]1	-3	8
Cc1cccn2c(CC(=O)NCCc3csc(-c4ccncc4)n3)cnc12	20	8
Cc1nnc(SCC(=O)Nc2sc3c(c2C(N)=O)CCCC3)[nH]c1=O	0	-2
CC(C)NC(=O)N1CCC(CN2C(=O)CSC2c2ccc(C(C)(C)C)cc2)CC1 (stereo not drawn)	18	17
CCC(=O)O[C@]1(C(=O)CCl)[C@@H](C)C[C@H]2[C@@H]3CCC4=CC(=O)C=C[C@]4(C)[C@@]3(F)[C@@H](O)C[C@@]21C	-8	-8
The listing continues.
SMILES	NPYLR7 agonist	NPYLR7 agonist max-min
CCc1nc2ccc(C(=O)N3CCN(C(=O)c4ccco4)CC3)cn2c1N(C)C=O	6	26
N#CC1(C#N)OC(C#N)(C#N)C2OC=CC21 (stereo not drawn)	-1	-1
O=C1NC2(CCN(C(=O)COc3ccccc3)CC2)Nc2ccc(Cl)cc21	5	25
Oc1cccc2ccc(CN3CCCC4(CCNCC4)CC3)nc12	4	3
CN(CCC1CCOCC1)C(=O)CCC(=O)NC1CCCCCCC1	13	0
CCCCCn1c(=O)c2c(nc3n(CCO)c(C)c(C)n23)n(C)c1=O	0	-5
CN1C(=C2C=NN(c3ccccc3)P2(=O)N2CCCC2)C(C)(C)c2ccccc21 (stereo not drawn)	-2	5
Cc1cccc(CN2CCN(C(=O)c3cn(-c4ccccc4)nn3)C(C)C2=O)c1 (stereo not drawn)	-3	-4
COc1ccc2oc(=Nc3ccccc3OC)c(-c3nc4ccccc4[nH]3)cc2c1	-2	-7
N[C@@H]1[C@@H](O)[C@H](O)[C@@H](CO)O[C@H]1O	-5&-4	-8&-14
Cc1[nH]c(=O)c(C#N)c(C)c1CCC(=O)NNC(=O)CC12CC3CC(CC(C3)C1)C2	3	10
CCN(Cc1nc2cc(Cl)ccc2c(=O)[nH]1)C(=O)COc1ccc(C(C)C)c(C)c1	7	11
COc1ccc(OC)c(C(=O)N2CCN(C)Cc3ccccc32)c1	9	6
COc1ccc(O)c(C(=O)c2cc(Cl)c3nc4cc(OC)c(OC)cc4c(=O)n3c2)c1	0	2
CCn1c(=NC(=O)c2ccccc2)sc2cccc(Cl)c21	-10	-13
CCOC(=O)c1c(C)[nH]sc1=S	13	12
Cc1sc(N(CC(=O)O)c2ccccc2)nc1-c1ccccc1	0	1
CNC(=O)c1cccc(CNC(=O)Cn2ccc(=O)n(C)c2=O)c1	9	7
Cc1ccc(NC(=O)CC(=O)NCc2cnc3c(C)cccn23)cc1	3	3
Cc1cn2c(CCC(=O)O)csc2n1	-2	-4
CCC1(C2CCN(C(=O)[C@H]3C[C@@H]4C=C[C@H]3C4)CC2)NC(=O)N(Cc2ccc3c(c2)OCO3)C1=O (stereo partly drawn)	10	6
CCc1cc2c(SCC(=O)c3cc(Cl)sc3Cl)ncnc2s1	15	10
c1ccc(CNc2ncccc2CN2CCNCC2)cc1	1	1
CN1CCN(C(CC(=O)Nc2ccc(Nc3ccccc3)cc2)C(=O)O)CC1 (stereo not drawn)	-3	-5
C=C(C)Cn1c(N=Nc2c(O)[nH]c3ccc(Br)cc23)nc2c1c(=O)n(C)c(=O)n2C	3	-1
Additional records:
SMILES	NPYLR7 agonist	NPYLR7 agonist max-min
COc1cc(NC(=O)Nc2c(C)nc3c(C)cccn3c2=O)cc(OC)c1OC	-2	0
CC(=O)OC1C([N+]2(C)CCCCC2)C[C@H]2C3CC[C@H]4C[C@H](OC(C)=O)C([N+]5(C)CCCCC5)CC4(C)[C@H]3CCC12C (stereo partly drawn)	-12	-19
Cc1ccc(CNC(=O)N2CCN(Cc3ccc(Br)s3)CC2)cc1F	0	2
OC(C#Cc1ccccc1)c1ncc(-c2ccccc2)[nH]1 (stereo not drawn)	-3	-6
CC(Oc1cccc(Cl)c1)C(=O)N1CCC(c2nc3ccccc3s2)CC1 (stereo not drawn)	-2	10
O=C(NCc1ccccc1)N1CCC(Cn2cc(CN3CCC(O)C3)nn2)CC1 (stereo not drawn)	19	10
Cc1cc(C)cc(CN2CCC(Cc3ccc(C(F)(F)F)cc3)CC2)c1	-1	-2
CCn1cc(CN2CCN(C(C)C)C(CCO)C2)cn1 (stereo not drawn)	2	-2
COc1ccc(CCN(C)Cc2nc(-c3ccccn3)no2)cc1OC	5&-2	2&-2
COc1ccc(CCN(C)S(=O)(=O)c2ccc(OC)c(N3CCN(C(=O)c4cc(Cl)cc(Cl)c4)CC3)c2)cc1OC	28	24
Nc1ccnc(N2CCC(c3[nH]ncc3-c3cccc(F)c3)CC2)n1	8	6
CCOc1ccc(N2CCN(C(=O)c3cccc(Br)c3)C(C)C2=O)cc1 (stereo not drawn)	7	26
CC(Sc1nc2cc(-c3ccccc3)sc2c(=O)n1CCN1CCOCC1)C(=O)N1CCCC1 (stereo not drawn)	2	6
Cc1cccnc1CC(C)Nc1nc(CCN)nc2ccccc12 (stereo not drawn)	5	3
CCCCOc1ccc(C(=O)Nc2c(C)nc3ccc(C)cn3c2=O)cc1	4	2
O=C(c1ccc2c(c1)OCO2)c1cn(Cc2ccc(F)cc2)c2cc3c(cc2c1=O)OCO3	4	4
COc1cccc(Cc2nsc(N(CCC(=O)N3CCOCC3)Cc3ccco3)n2)c1	-2	0
Cc1ccc(-n2nnc3c(N4CCN(C(=O)CC(C)(C)C)CC4)ncnc32)cc1	-3	-11
C=CCN(Cc1csc(COc2ccc(OC)cc2)n1)C(=O)C(C)C	6	6
CN1C(=O)NC(c2cccc(OCc3ccccc3)c2)C2=C1CN(Cc1cccnc1)C2=O (stereo not drawn)	6	6
CCCn1c(=O)c2c(nc3n(C(C)c4ccccc4)c(C)cn23)n(C)c1=O (stereo not drawn)	-3	1
CCCCc1ccc(C(=O)N(CC(=O)N(Cc2cccn2C)CC(C)C)C(C)CC)cc1 (stereo not drawn)	-13	-5
Cc1cccnc1C1=NOC(C)C(=O)N1Cc1ccc(F)cc1 (stereo not drawn)	7	4
CCOCCCN(CC(=O)c1c(C)c(C(=O)OCC)n(CC)c1C)S(=O)(=O)c1ccc(Cl)cc1	-12	-7
CCC1CN(CC(=O)NC(C2CC2)C2CC2)CCN1CC(C)O (stereo not drawn)	1	1
(list continues)
SMILES	NPYLR7 agonist	NPYLR7 agonist max-min
Cc1ccc(-n2nc(-c3ccccc3Cl)cc2C(=O)NCc2cccc(C(F)(F)F)c2)cc1	-1	5
CCSc1nnc(NC(=O)CSc2nc3c([nH]c4ccccc43)c(=O)n2-c2ccccc2)s1	1	11
O=c1c2ccccc2nnn1CC(O)c1ccccc1 (stereo not drawn)	6	4
Cc1ccc(-c2nn(CN3CCCC3C(=O)N(C)C)c(=S)n2-c2ccc(C)cc2)cc1 (stereo not drawn)	-1	21
OC(COc1ccccc1)CN(Cc1ccco1)Cc1ccco1 (stereo not drawn)	16	17
CN(C)c1ncc(CN2CCC(CCC(=O)NCc3cccnc3)CC2)s1	8	7
Cc1ccn(CC(=O)N2CCCC(Nc3ccc(F)c(F)c3)C2)n1 (stereo not drawn)	13	4
CCCCCCCCN=C(NC(=O)c1ccc(OC)cc1)OC	11	17
Cc1cc2c(c(=O)n1Cc1ccccc1)C(Cc1ccccc1)C(C#N)C(=N)O2 (stereo not drawn)	-4	-2
CCOC(=O)c1ccc(OC(=O)CCCCCN=C(N)N)cc1	3&20	2&4
COc1ccc(/C=C/C2=NC(=C\c3ccc(C)cc3)/C(=O)O2)cc1	-1	-4
CC1(C(=O)Nc2cccc3cccnc23)CCN1CC1CC1 (stereo not drawn)	11	1
CCCCN(Cc1cccn1Cc1ccc(Br)cc1)C(=O)CN(CCCOC)S(=O)(=O)c1cc(Cl)ccc1Cl	-4	3
CC1(C2CC2)NC(=O)N(CC(=O)N(Cc2cccnc2)c2ccc3c(c2)OCO3)C1=O (stereo not drawn)	9	5
CCCCN(C(C)=O)c1c(CC)nc2ccc(C(=O)NCc3ccc(OC)cc3)cn12	14	11
N#Cc1ccc(S(=O)(=O)N2CCNCC2)cc1	-1	-2
CC(C)c1ccc(NC2CCCN(C(=O)Cn3cnc4ccccc4c3=O)C2)cc1 (stereo not drawn)	3	1
O=S(=O)(c1cccc(F)c1)N1CCNCC1	-1	-3
CCCNC(=O)C(C)NC(=O)CCS(=O)(=O)c1ccc(C)cc1 (stereo not drawn)	0	7
CC(=O)Nc1ccc(NC(=O)c2nnn(-c3ccccc3)c2C)cc1	-1	-6
O=C(NCCCCNC(=O)c1cnccn1)c1cnccn1	5	2
CC(C)c1cc(C(=O)OCc2ccccc2C(N)=O)n[nH]1	-5	-6
COc1ccccc1N=c1oc2cc(OC(C)=O)ccc2cc1C(=O)NC(C)=O	-12	-23
CCC(C)C(NC(=O)Nc1cccc(OC)c1)C(=O)Nc1nnc(-c2ccc(N(C)C)cc2)s1 (stereo not drawn)	-1	0
Nc1ccc(Cl)c(S(=O)(=O)Nc2ccc(I)cc2)c1	-1	-1

Part of the list above in order of number of heavy atoms, falling:
SMILES	NPYLR7 agonist	NPYLR7 agonist max-min
CCC(C)C(NC(=O)Nc1cccc(OC)c1)C(=O)Nc1nnc(-c2ccc(N(C)C)cc2)s1 (stereo not drawn)	-1	0
CCSc1nnc(NC(=O)CSc2nc3c([nH]c4ccccc43)c(=O)n2-c2ccccc2)s1	1	11
CC(C)c1ccc(NC2CCCN(C(=O)Cn3cnc4ccccc4c3=O)C2)cc1 (stereo not drawn)	3	1
CN(C)c1ncc(CN2CCC(CCC(=O)NCc3cccnc3)CC2)s1	8	7
CCCCCCCCN=C(NC(=O)c1ccc(OC)cc1)OC	11	17
CC(C)c1cc(C(=O)OCc2ccccc2C(N)=O)n[nH]1	-5	-6

(more compounds)
SMILES	NPYLR7 agonist	NPYLR7 agonist max-min
Cc1ccc(C(=O)OCC(=O)COC(=O)c2ccc(C)s2)s1	2	2
CC(=O)Cn1c(=O)c2c(nc3n2CCN3c2ccc(C)c(Cl)c2)n(C)c1=O	3	1
CCOC(=O)CCNC(=O)N1CCC(CC2CCCCO2)(C(=O)OCC)CC1 (stereo not drawn)	9&6	8&10
CNc1nc2cnc(Nc3cccnc3)cc2n1CCN1CCOCC1	-3	-5
CCn1nc(C)c(C(=O)Nc2ccc(OC(C)C)cc2C)c1C	5	3
CC(C)(C)CN1CC(NC(=O)c2ccc(-c3ccn[nH]3)cc2)CC1=O (stereo not drawn)	8	5
CN(Cc1cccc(N2CCN(S(=O)(=O)c3c(Cl)cccc3Cl)CC2)c1)S(C)(=O)=O	2	3
CCOC(=O)C1=NNC2C(=O)N(CC)C(=O)C12 (stereo not drawn)	6	1
Cc1nc(N2CCC(C(=O)N3CCN(C(=O)c4ccco4)CC3)CC2)nc2ccc(C(C)C)cc12	10	5
COc1ccc(F)cc1C(=O)Nc1nnc(C)s1	-7	-9
O=C(CC(C(=O)N1CCC(n2c(=O)[nH]c3ccccc32)CC1)C1CCCO1)N1CCC(n2c(=O)[nH]c3ccccc32)CC1 (stereo not drawn)	-11	-16
c1nc(Nc2ccc3c(c2)CCC3)c2c3c(sc2n1)CCCC3	6	11
COc1cc(-n2cnnn2)c(Cl)cc1C(=O)NC1CC=CC1	4	3
COc1ccc(NC(=O)CSc2nnc(CNC(=O)c3ccc(S(=O)(=O)N4CCCC4)cc3)n2-c2ccc(F)cc2)cc1	6	11

Profiles from above. Order of screens: NPYLR7 agonist, NPYLR7 agonist max-min
Results for `C[C@H](Cc1ccc(O)c(O)c1)[C@@H](C)Cc1ccc(O)c(O)c1` : 5, -4
Results for `O=C1/C(=C/c2ccsc2)CSC/C1=C/c1ccsc1` : 1, -1
Results for `COc1ccc(NC(=O)CSc2nnc(CNC(=O)c3ccc(S(=O)(=O)N4CCCC4)cc3)n2-c2ccc(F)cc2)cc1` : 6, 11
Results for `CC(C)(C)CN1CC(NC(=O)c2ccc(-c3ccn[nH]3)cc2)CC1=O` (stereo not drawn) : 8, 5
Results for `Cc1sc(N(CC(=O)O)c2ccccc2)nc1-c1ccccc1` : 0, 1

Screening data deposited in PubChem by Fisher Drug Discovery Resource Center.

Only part of the results is shown, so the mix of outcomes need not match the whole.
